Assay outcomes deposited in PubChem by National Center for Advancing Translational Sciences (NCATS).
miR-21 reporter – miR-21 reporter, rising signal. HeLa miR-21 FLuc reporter, luciferase, 48 h. 340,000 tested, under 10 active. Potency, µM (titrated, usually from 38.3 µM), for the others: at the highest dose reporter change, positive = more light; active = well fitted rising curve with a large enough effect; inconclusive = small, poorly fitted or top-dose-only effect; inactive = no such curve, though single readings can be large or run the other way;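 further: % of control where 0% means no effect; miR-21 action dims this reporter so a rising signal means less miR-21 action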
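HeLa cells stably expressing CMV-driven firefly luciferase with a downstream miR-21 binding sequence, endogenously expressing miR-21, were treated with titrations (up to about 40uM final) for 48 hours at 37 degree Celsius. Luciferase luminescence was read after lysis.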
Rango-impB inh – inhibitors of Rango-importin beta complex formation | Rango CFP/YFP FRET sensor + importin beta, 45 min | AID 540263 | Potency, µM (titrated, usually from 92.2 µM), for inactives: at the highest dose inhibition of complex formation | Q14974 | 340,000 tested, 0.031% active; active = rising FRET ratio curve, often small or poorly fitted; inconclusive = mostly compound fluorescence or quenching in the first reads; inactive = flat curves in all reads;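 further: potency means the concentration at half of the fitted maximal effect; 0% = DMSO wells and 100% = buffer wells lacking importin beta; nearly all actives have a fitted effect of over 15% in size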
Target sequence (Q14974 whole entry, looked up): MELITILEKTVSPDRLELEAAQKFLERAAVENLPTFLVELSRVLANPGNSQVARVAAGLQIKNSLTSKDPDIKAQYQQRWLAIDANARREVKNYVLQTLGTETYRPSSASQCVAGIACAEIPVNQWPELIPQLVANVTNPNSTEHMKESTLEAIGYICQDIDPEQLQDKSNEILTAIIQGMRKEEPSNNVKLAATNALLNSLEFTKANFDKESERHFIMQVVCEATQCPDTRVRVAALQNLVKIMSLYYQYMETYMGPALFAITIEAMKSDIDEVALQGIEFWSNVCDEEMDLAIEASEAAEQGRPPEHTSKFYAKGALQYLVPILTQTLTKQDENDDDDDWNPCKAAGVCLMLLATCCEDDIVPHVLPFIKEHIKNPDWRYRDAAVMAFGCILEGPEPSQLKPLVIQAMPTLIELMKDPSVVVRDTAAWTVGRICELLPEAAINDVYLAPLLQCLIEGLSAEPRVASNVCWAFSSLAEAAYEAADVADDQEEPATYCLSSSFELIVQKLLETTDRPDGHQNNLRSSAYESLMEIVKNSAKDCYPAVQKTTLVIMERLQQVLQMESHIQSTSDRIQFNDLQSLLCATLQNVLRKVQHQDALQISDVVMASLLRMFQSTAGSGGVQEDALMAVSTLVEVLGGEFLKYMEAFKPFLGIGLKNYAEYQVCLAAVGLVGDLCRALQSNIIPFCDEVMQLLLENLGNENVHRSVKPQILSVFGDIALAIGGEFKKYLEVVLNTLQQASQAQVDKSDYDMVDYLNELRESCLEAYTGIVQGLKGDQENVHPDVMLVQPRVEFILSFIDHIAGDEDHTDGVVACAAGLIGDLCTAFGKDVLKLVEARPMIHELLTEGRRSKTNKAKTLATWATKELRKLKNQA
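Inhibition scored from the CFP 486 nm/YFP 530 nm FRET ratio 45 min after adding 0.125 microM importin beta to 50 nM Rango biosensor preincubated 5 min with compound (room temperature, PBS with DTT, Tween-20, BSA). No-importin wells as positive control.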
Rango release inh – inhibitors of RanGTP-induced Rango-importin beta complex dissociation; Biochemical FRET Rango-importin beta, RanGTP-induced dissociation; 340,000 tested, 0.071% active; Potency, µM (series often up to 46.1 µM), for the others: top-dose activity change, negative = inhibition; active means falling FRET ratio curve, often poorly fitted, with flat reads before Ran was added; inconclusive means other falling curves, or compound fluorescence or quenching; inactive means flat or rising ratio curve;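 further: potency means the concentration at half of the fitted maximal effect; % of control where 0% means no effect; nearly all actives have a fitted effect of over 45% in size; -100% = wells without RanGTP and RCC1; the record marks most hits as doubtful in a second field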
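Two FRET readings bracket the reaction: one 5 min after compound meets Rango–importin beta, another 45 min after RanGTP-RCC1 (0.6 uM Ran, 0.2 uM RCC1, 2 mM GTP) is added. Only the second defines inhibition.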
GLA inh pH 4.5 – inhibitors of human alpha-galactosidase A at pH 4.5 | purified enzyme, 4-MU-alpha-Gal fluorescence, pH 4.5 | activity change, negative = inhibition, % at 105 µM | 230,000 tested, under 10 active; inconclusive = small, poorly fitted or top-dose-only inhibition, or a rising curve; inactive = flat fitted curve, though single readings scatter; no compound was filed as active;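 further: 0% = full activity with enzyme and -100% = basal without enzyme; dose as in the result columns while the protocol names 77 µM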
The depositor's hits bear a star; ? = inconclusive; . = not tested or not shown; [ ] = dose if it differs, or a comment. This is a subset (hit frequency here may not be typical).

SMILES | miR-21 reporter | Rango-impB inh | Rango release inh | GLA inh pH 4.5
Cc1nn(-c2ccccc2)cc1/C=N/O | -11% | 5.0% | 4% | 4
Cc1nc2nc(SCC(=O)Nc3cccc(F)c3)[nH]c2cc1Br | -8% | -0.9% | -2% | .
O=C(Nc1ccccc1N1CCCC1)c1cccc(-c2cc3ccccc3oc2=O)c1 | -20% | 0.0% | -13% | -1
O=C(CCc1nc(-c2ccccc2Cl)no1)NCC1CCCO1 (stereo not given) | 0% | -0.5% | 0% | -4
COc1ccc(NC(=O)c2ccc3c(c2)OCO3)cc1[N+](=O)[O-] | -41% | -0.9% | -9% | 3
Cc1nnc(C)c2c(C)n(Cc3ccc4c(c3)OCO4)c(C)c12 | 4% | ? | -18% | 0
CC(C)=CC(=O)N1CCCc2ccccc21 | -2% | -0.9% | 18% | -3
O=C(CCN1CCCCC1)Nc1ccc(Br)cc1 | -10% | 0.8% | 0% | 4
O=C(CN1CCN(C(=O)CNC(=O)c2ccc3c(c2)OCO3)CC1)Nc1cccc(F)c1 | . | 2.0% | -11% | .
O=C(NCc1ccco1)c1ccccc1NC(=O)C1CC(=O)N(c2ccc(Cl)cc2)C1 (stereo not given) | 2% | 0.2% | -13% | -9
COc1ccccc1CNC(=O)CNC(=O)c1sc2ccccc2c1Cl | -14% | -1.0% | 11% | .
Cc1nc(NCc2ccco2)c2c(C)c(C)sc2n1 | ? | -1.6% | 6% | 10
C=CCn1c(SCC(=O)Nc2ccc(N3CCOCC3)cc2)nc2ccccc2c1=O | 0% | 0.0% | -13% | .
Cc1cccc(NC(=O)CNC(=O)C(NC(=O)Cc2ccccc2)C(C)C)c1C (stereo not given) | . | 0.0% | 0% | .
Cc1ccc(C)c(NC(=O)C(c2ccccc2)N2CCN(CC(=O)NC3CC3)CC2)c1 (stereo not given) | . | 13% | 0% | .
COc1ccc(NC(=O)CCCc2ccccc2)cc1OC | -48% | 7.6% | 7% | .
Cc1onc(C(=O)NN)c1C(=O)Nc1ncc(C(F)(F)F)cc1Cl | -7% | -3.9% | 0% | -2
COc1ccc(/C=N/NC(=O)c2cccc(NC(C)=O)c2)c(C(=O)O)c1OC | -15% | 3.3% | -15% | 3[21.1 µM]
CCOCCCNc1nc2c(C)cccn2c(=O)c1/C=C1\SC(=S)N(CC(C)C)C1=O | 0% | 14% | 11% | 7
CCCCN(C(=O)c1ccc(OC)c([N+](=O)[O-])c1)c1c(N)n(CCC)c(=O)[nH]c1=O | -2% | 2.0% | 17% | .
COc1ccc(C(=O)N2CCN(c3nnnn3-c3ccccc3)CC2)cc1OC | -7% | 4.2% | -7% | 5
Cc1ccccc1Cn1cnc2c(NS(C)(=O)=O)c(C)c(C)cc21 | 15% | 2.1% | -11% | -13
C=CCOc1ccc(Cl)cc1CNCCCN1CCOCC1 | -7% | -3.9% | -6% | -1
CCOC(=O)c1cc(-c2ccccc2)n(CCC(=O)O)c1C | -10% | -0.2% | 16% | 5
COc1ccc(Nc2cc(C)nc(N3CCOCC3)n2)cc1 | -25% | -1.3% | -5% | -28

(further entries)
SMILES | miR-21 reporter | Rango-impB inh | Rango release inh | GLA inh pH 4.5
Cc1ccc(S(=O)(=O)c2c(C)nn(C(C)(C)C)c2OC(=O)C(C)C)cc1 | 18% | -1.6% | -6% | -7
O=C(COC(=O)CCC(=O)c1ccc(F)cc1)Nc1ccc(Cl)cn1 | . | ? | ? | .
COc1cc(S(=O)(=O)NCc2ccccn2)c(OC)cc1Cl | -2% | -1.3% | 2% | -5
c1cncc(CNc2ncnc3ccc(-c4ccc5c(c4)OCO5)cc23)c1 | . | 1.6% | -15% | .
CC(=O)C1=C(C)Nc2ncnn2C1c1cccc(Br)c1 (stereo not given) | -7% | 2.3% | 3% | .
O=c1cc(CO)oc(CN2CCN(Cc3ccccc3)CC2)c1O | 1% | -0.1% | 2% | -2
COc1ccc(NC(=O)CSCC(=O)Nc2cccc(S(=O)(=O)N3CCCCCC3)c2)cc1 | . | -3.2% | 1% | .
COC(=O)c1ccc2nc3c(cc2c1)[C@@H]1CCN2C(=O)CCC[C@H](C3)[C@H]12 | . | -3.1% | -23% | .
COc1ccc(/C(N)=N/OC(=O)/C=C/c2ccccc2)cc1 | -18% | 4.0% | 33% | -4
COc1cccc(C(=O)C2CCCN(Cc3cccc(-n4cccn4)c3)C2)c1 (stereo not given) | 3% | 1.2% | 6% | -2
COc1cc(NC(=O)c2ccccc2-c2ccccc2)cc(OC)c1OC | 11% | . | . | 0
Cc1ccccc1C(=O)NC(=S)Nc1ccc(S(=O)(=O)N(C)c2ccccc2)cc1 | -1% | -6.6% | 11% | -5
CCOC(=O)C1=C(CN2CCc3ccccc32)NC(=O)NC1c1cc(C)ccc1C (stereo not given) | . | -0.8% | -4% | .
CN1CCN(c2ccc(S(=O)(=O)N3CCCCC3)cc2NC(=O)CSCc2ccccc2)CC1 | -5% | -1.9% | 0% | .
COC(=O)c1sccc1NC(=O)CC1C(=O)NCCN1C(=O)Nc1ccc(C(F)(F)F)cc1 (stereo not given) | -4% | ? | 37% | -4
CN1CCN(c2ccc(S(=O)(=O)N3CCOCC3)cc2NC(=O)Cc2ccccc2F)CC1 | . | 0.8% | 29% | .
CN(Cc1ccco1)C(=O)CSc1nc(C2CC2)n(-c2ccccc2)n1 | . | ? | -10% | .
CSc1ncccc1C(=O)OCC(=O)N1CCN(C(=O)c2ccco2)CC1 | . | 1.6% | -4% | .
COC(=O)C(C)Sc1nc2c(c(=O)[nH]c(=O)n2C)n1CCCc1ccccc1 (stereo not given) | -2% | 0.1% | 17% | 4
CC(C)(C)C(=O)NNC(=O)CCCOc1ccc(Cl)cc1Cl | -6% | 0.5% | 8% | -1
COc1ccccc1N1CCN(CCCn2c(=S)[nH]c3ccccc3c2=O)CC1 | 6% | -3.9% | -7% | .
COc1cc(-c2nnc(CSc3nnc4nc(C)cc(C)n34)o2)cc(OC)c1OC | -6% | 0.6% | -5% | -1
O=S(=O)(O)c1cc(O)c2cc(Nc3ccccc3)ccc2c1 | . | -2.2% | -8% | .
CCN(CC)c1ccc(C(=O)OCC(=O)N(C(C)C)C(C)C)cc1 | 14% | 5.9% | -13% | 6
N#CC(=C1C=CC(=NO)C(Cl)=C1)c1ccc(Cl)cc1 | . | -0.2% | 17% | .

A draw from above in order of formula weight, descending:
SMILES | miR-21 reporter | Rango-impB inh | Rango release inh | GLA inh pH 4.5
Cc1ccccc1C(=O)NC(=S)Nc1ccc(S(=O)(=O)N(C)c2ccccc2)cc1 | -1% | -6.6% | 11% | -5
COC(=O)C(C)Sc1nc2c(c(=O)[nH]c(=O)n2C)n1CCCc1ccccc1 (stereo not given) | -2% | 0.1% | 17% | 4
COc1cccc(C(=O)C2CCCN(Cc3cccc(-n4cccn4)c3)C2)c1 (stereo not given) | 3% | 1.2% | 6% | -2
CN(Cc1ccco1)C(=O)CSc1nc(C2CC2)n(-c2ccccc2)n1 | . | ? | -10% | .
O=C(COC(=O)CCC(=O)c1ccc(F)cc1)Nc1ccc(Cl)cn1 | . | ? | ? | .
CCN(CC)c1ccc(C(=O)OCC(=O)N(C(C)C)C(C)C)cc1 | 14% | 5.9% | -13% | 6
COc1ccc(/C(N)=N/OC(=O)/C=C/c2ccccc2)cc1 | -18% | 4.0% | 33% | -4

Next section
SMILES | miR-21 reporter | Rango-impB inh | Rango release inh | GLA inh pH 4.5
Cc1ccc(C(=O)Nc2nncs2)cc1S(=O)(=O)N1CCOCC1 | -8% | 0.5% | 9% | 1
O=C(CN1CCN(c2ccccc2Cl)CC1)NC1CCCc2ccccc21 (stereo not given) | -16% | 1.3% | 1% | -4
Cc1ccc2c(CSc3nnc(C4CC4)n3N)cc(=O)oc2c1C | -26% | 3.1% | 4% | 3
O=C(O)CCN1C(=O)CC(N2C(=O)/C(=C/c3ccc(Cl)cc3)SC2=S)C1=O (stereo not given) | -1% | -3.1% | -20% | 8
Nc1nc(-c2ccccn2)nc(N)c1Cc1c(F)cccc1Cl | 12% | -1.1% | -7% | -8
Cc1cc(C)c(C)c(S(=O)(=O)Nc2ccc3cn[nH]c3c2)c1C | . | 0.1% | 18% | .
CCC(=O)N1N=C(c2c(-c3ccccc3)c3cc(Cl)ccc3[nH]c2=O)CC1c1ccco1 (stereo not given) | 23% | ? | -7% | 1
Cc1ccc(NC(=S)N2C3CCCC2CC(NC(=O)C2CC2)C3)cc1C (stereo not given) | 1% | 5.1% | 28% | .
O=C(Nc1ccc([N+](=O)[O-])cc1)c1cc2ccccc2nc1Cl | 19% | -2.9% | 4% | 15
C=C(C)COc1ccc2c(c1)CCC1C2CCC2(C)C(=O)C(=NO)CC12 (stereo not given) | . | 1.6% | 6% | .
Cc1nc2ccc(S(=O)(=O)N(C)CC(=O)N3CCc4ccccc4C3)cc2s1 | -11% | 5.4% | 4% | 0
O=C(COC(=O)c1cc(=O)[nH]c2ccccc12)NC(=O)NC1CCCCC1 | -2% | -7.2% | 13% | -2
CCOC(=O)Cc1csc(NC(=O)c2ccc(S(=O)(=O)N3CCCC3)cc2)n1 | 21% | -0.9% | -1% | -13
CCCOc1ccc(-c2c(=O)n(OCC(=O)OCC)c3ccccc3[n+]2[O-])cc1 | -60% | ? | ? | .
COc1ccc(C(=O)CN(Cc2ccccc2)C2=NCCS2)cc1 | 2% | -0.5% | -8% | -5
O=c1oc(CCO)cc2ccc(Br)cc12 | . | -0.8% | 20% | .
CNc1ccccc1C(=O)OCC(=O)c1ccccc1 | -62% | 0.2% | -4% | 1
CCCCCCOC(=O)c1ccc(OC(=O)c2cccnc2)cc1 | -61% | -1.1% | -16% | -18
O=C(c1ccc(Br)cc1)C(CN1CCOCC1)c1ccccc1 (stereo not given) | ? | 6.6% | -17% | .
CC(=O)c1cc(C#N)c(SCC(=O)C(C)(C)C)nc1C | -50% | ? | -14% | -6
CC(Oc1cccc(Br)c1)C(=O)NNC(=O)c1ccccn1 (stereo not given) | . | -0.2% | -5% | .
CCOC(=O)C1CCCCN1Cc1cccc(OC)c1OC (stereo not given) | 1% | 1.3% | -7% | -5
O=C(O)c1ccccc1C(=O)Nc1ccc(Br)c(C(F)(F)F)c1 | 2% | -0.2% | 1% | 0
COC(=O)c1ccc(/C=C/c2c(-c3ccsc3)sc3ccccc23)cc1 | 2% | -0.1% | -6% | .
COCCn1c(SCC(=O)Nc2ccc(C(N)=O)cc2)nc2c([nH]c3ccccc32)c1=O | 10% | -0.2% | -4% | .

Continued.
SMILES | miR-21 reporter | Rango-impB inh | Rango release inh | GLA inh pH 4.5
Cc1ccccc1Nc1nc(N)nc(CN2CCN(C(=O)c3ccccc3)CC2)n1 | 0% | -2.9% | -17% | -6
CC(/C=N/NC(=O)CNc1n[nH]c(=O)[nH]c1=O)c1ccccc1 (stereo not given) | 2% | -1.8% | 25% | -19
CCCCN1C(=N)N([C@@H](C)CN2CCC[C@H]2CN2C(N)=NC[C@@H]2Cc2ccccc2)C[C@H]1[C@H](C)CC | . | 0.1% | -1% | .
COc1ccc2cc(C(=O)CS(=O)(=O)c3ccccc3)c(=O)oc2c1 | -6% | ? | ? | .
O=C(NNS(=O)(=O)c1ccccc1[N+](=O)[O-])c1ccc(O)cc1 | -4% | 7.5% | 15% | 7
Cc1ccc(NC(=O)C2CCCN(C(=O)c3ccc(Cl)cc3)C2)cc1S(=O)(=O)N1CCOCC1 (stereo not given) | 22% | 0.1% | 5% | -31
COc1ccc(Cl)cc1NC(=O)NNC(=O)c1ccccn1 | 2% | -1.7% | 5% | .
CN(CCc1ccccc1)C(=O)CCc1nnc(Cc2ccc3c(c2)OCO3)o1 | -12% | -1.6% | -9% | .
C/C(CC(=O)Nc1cccc(Cl)c1Cl)=N\NC(=O)c1ccccc1N | -55% | -2.6% | 18% | 11
O=C(c1cn(-c2ccccc2)nc1-c1ccc(Cl)s1)N1CCOCC1 | -9% | 2.4% | -10% | -4
CC(C)[C@H](NC(=O)[C@@H]1Cc2ccccc2CN1C(=O)OC(C)(C)C)C(=O)NCC1CCCO1 (stereo not given in full) | -1% | -0.2% | -1% | .
O=C(CN(c1ccccc1)S(=O)(=O)c1ccccc1[N+](=O)[O-])N1CCCC1 | -1% | 0.1% | 17% | .
